TRPML1 blocker – qHTS for Inhibitors of the Human Mucolipin Transient Receptor Potential 1 (TRPML1); Mucolipin-1 (Homo sapiens), Q9GZU1; TRPML1-inducible cells, Ca2+ dye fluorescence, FDSS; stronger effect = lower value; inhibition of EC80 agonist-evoked calcium signal; activity change, negative = inhibition, % (no concentration beside the values); 390,000 tested, 0.02% active; in the data active means activity change below about -50%; inconclusive means about -30% to -50%; inactive means above about -30%;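 further: stimulus is agonist 54-4 at its EC80 concentration; on the % scale 0 is the no-effect control and ±100 the full control effect; compound concentration not given in the record; the text of the record puts the active cut at -80%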
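Calcium fluorescence in TRPML1-DL cells induced overnight with Tet: a 110 s read after compound pin addition, then a 110 s antagonist read after challenge with 54-4 at 4 uM final (EC80).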
Menin-MLL FL inh – qHTS Assay for Inhibitors Targeting the Menin-MLL Interaction in MLL Related Leukemias: Competition With Fluorescein Labeled MLL-derived Peptide; FP activity change, % at 61.4 µM; 290,000 tested, under 10 active; AID 1766, 2009; Fluorescence polarization, fluorescein-MLL peptide displacement from menin; inconclusive = falling polarisation curve, or a change in total fluorescence; inactive = total fluorescence flat and polarisation flat or rising; no compound was filed as active; the % refers to the polarisation; negative = inhibition;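 further: % of control where 0% means no effect; inhibitors lower the polarisation; unlabelled MLL peptide was the positive control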
ClpP mod – qHTS Assay for Activators of ClpP | purified B. subtilis ClpP, FRET peptide cleavage, 20 min | Potency, µM (doses to about 57.5 µM), for the others: top-dose activity change, negative = active | 340,000 tested, 1.9% active | AID 651965, 2013; active = well fitted falling curve with a large enough effect; inconclusive = small, poorly fitted or top-dose-only effect; inactive = no such curve, though single readings can be large or run the other way; further: potency means the concentration at half of the fitted maximal effect; the source files actives as falling curves though it sought activators and does not explain the sign; nearly all actives have a fitted effect of over 65% in size; many hits overshoot -100%
Target sequence (P80244 whole entry, looked up): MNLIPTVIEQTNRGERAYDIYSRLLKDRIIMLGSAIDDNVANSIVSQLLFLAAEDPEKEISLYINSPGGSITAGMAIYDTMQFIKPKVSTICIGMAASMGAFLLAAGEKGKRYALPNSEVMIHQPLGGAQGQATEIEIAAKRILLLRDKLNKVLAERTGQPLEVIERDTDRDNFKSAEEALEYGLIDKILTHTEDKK
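Purified B. subtilis ClpP, 10 microg/mL final in Tris/HCl pH8 with KCl, BSA, glycerol and Tween-20, cleaved an Abz/nitrotyrosine-quenched decapeptide. Fluorescence (ex 320, em 430) was read at 0 and 20 min at room temperature. Delta was normalized to 5.8 microM ADEP and DMSO/no-enzyme controls.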
gsp agonist – qHTS for Agonist of gsp, the Etiologic Mutation Responsible for Fibrous Dysplasia/McCune-Albright Syndrome: qHTS; AID 624287, 2012; Potency, µM (titrated, usually from 76.9 µM), for the others: at the top dose activation (cAMP increase), hits mostly activators; 340,000 tested, 0.13% active; gsp mutant cells, cAMP HTRF, 30 min; control for the full effect not named in the record; active = well fitted activation curve with a large enough effect; inconclusive = small, poorly fitted or top-dose-only effect, or another doubt; inactive = no such curve, though single readings can be large or run the other way; cell line not stated here;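 further: phosphodiesterase inhibitor Ro 20-1724 added with compounds to block cAMP breakdown; potency means the concentration at half of the fitted maximal effect; nearly all actives have a fitted effect of over 60% in size; about a fifth of the inactives were tested at one dose only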
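Cells stably selected in G418 were plated at 2000/well, grown 16-24 hr, then given compounds in DMSO with the PDE inhibitor […] (300 uM solution added) for 30 min at 37C; cAMP was read by HTRF.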
Sfp PPTase inh – qHTS Assay for Inhibitors of Bacillus subtilis Sfp phosphopantetheinyl transferase (PPTase) | 4'-phosphopantetheinyl transferase ffp (Bacillus subtilis), Q9F4F7 | Biochemical Sfp PPTase activity, qHTS | Potency, µM, inactives show max response, negative = inhibition, usual class: inhibitors | 310,000 tested, 3.5% active | AID 1490, 2009; active means well fitted inhibition curve with a large enough effect; inconclusive means small, poorly fitted or top-dose-only effect, or another doubt; inactive means no such curve, though single readings can be large or run the other way;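 further: the enzyme is Sfp with the accession as filed and its product quenches rhodamine fluorescence; potency means the concentration at half of the fitted maximal effect; 0% = enzyme reaction without inhibitor and -100% = no enzyme wells; top concentration of the series not given in the record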
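Fluorescence-quenching assay with 15 nM Sfp, 5 uM rhodamine-CoA and 12.5 uM BHQ-2-labelled ybbR peptide in pH 7.6 Hepes/MgCl2 buffer. Enzyme was pre-incubated with compound for 15 min at room temperature. Rate was taken from the 30-min fluorescence change (525/598 nm).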
TRPV1 PAM – HTS Assay for Compounds that Act as Potentiators of the Vanilloid Receptor 1; TRPV1-expressing cells, Fluo-8 calcium influx, capsaicin EC20 potentiation; host cell line not named in the record; control for the full effect not named in the record; AID 540277, 2011; Transient receptor potential cation channel subfamily V member 1 (Homo sapiens), Q8NER1; potentiation, % at 8.33 µM; 320,000 tested, 0.02% active; active means potentiation above 80%; inconclusive means 30% to 80%; inactive means below 30%; further: 0% is about no effect
Target sequence (Q8NER1 whole entry, looked up): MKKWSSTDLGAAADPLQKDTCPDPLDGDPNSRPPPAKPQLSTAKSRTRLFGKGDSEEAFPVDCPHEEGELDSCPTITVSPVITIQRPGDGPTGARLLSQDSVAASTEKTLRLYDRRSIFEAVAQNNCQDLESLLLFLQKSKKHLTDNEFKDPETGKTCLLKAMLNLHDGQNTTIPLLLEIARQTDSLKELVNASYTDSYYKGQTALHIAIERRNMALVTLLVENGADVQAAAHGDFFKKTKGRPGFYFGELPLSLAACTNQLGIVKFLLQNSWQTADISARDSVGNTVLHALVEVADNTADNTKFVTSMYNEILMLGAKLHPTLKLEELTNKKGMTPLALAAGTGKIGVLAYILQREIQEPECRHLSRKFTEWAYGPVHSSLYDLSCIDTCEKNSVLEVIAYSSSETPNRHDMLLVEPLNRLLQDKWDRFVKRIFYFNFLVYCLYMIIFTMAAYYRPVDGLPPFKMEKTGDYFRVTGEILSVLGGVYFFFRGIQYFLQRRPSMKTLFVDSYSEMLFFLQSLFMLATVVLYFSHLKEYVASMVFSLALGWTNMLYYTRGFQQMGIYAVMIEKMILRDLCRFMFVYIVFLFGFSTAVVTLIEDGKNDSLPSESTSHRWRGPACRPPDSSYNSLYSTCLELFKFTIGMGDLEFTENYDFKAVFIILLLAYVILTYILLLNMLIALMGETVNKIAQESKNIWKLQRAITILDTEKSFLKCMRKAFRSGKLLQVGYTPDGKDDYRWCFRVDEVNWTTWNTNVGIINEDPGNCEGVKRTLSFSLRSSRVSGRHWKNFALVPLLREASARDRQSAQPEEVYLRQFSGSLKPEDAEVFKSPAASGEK
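Cells expressing TRPV1 were dye-loaded with Fluo-8 and read kinetically: 10 s baseline, 3 min after compound (agonist portion), then 2 min after EC20 capsaicin (allosteric enhancer portion). Calcium-bound dye fluorescence at 480/520 nm.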
gsp antagonist – qHTS for Antagonists of gsp, the Etiologic Mutation Responsible for Fibrous Dysplasia/McCune-Albright Syndrome: qHTS; gsp-mutant cells, cAMP HTRF, 30 min; control for the full effect not named in the record; AID 624288, 2012; 340,000 tested, 0.4% active; Potency, µM (top dose mostly 76.9 µM), without a hit: at the top dose activity change, negative = inhibition, most hits filed as inhibitors; active = falling curve of any shape with a large fitted effect; inconclusive = falling curve, mostly with a smaller effect; inactive = flat or rising curve; cell line not stated here;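 further: intracellular cAMP measured with PDE inhibitor Ro 20-1724 present during compound exposure; potency means the concentration at half of the fitted maximal effect; on the % scale 0 is the no-effect control and ±100 the full control effect; nearly all actives have a fitted effect of over 65% in size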
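Measurement of cellular cAMP by homogeneous time-resolved fluorescence following a 30 min compound exposure at 37C. The PDE inhibitor […] was present throughout; the assay buffer was DPBS with 0.05% BSA and 0.005% Tween 20.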
* = called active by the depositor; ? = inconclusive; . = no result given; [ ] = remark or other dose.

SMILES	TRPML1 blocker	Menin-MLL FL inh	ClpP mod	gsp agonist	Sfp PPTase inh	TRPV1 PAM	gsp antagonist
COCCNC(=O)c1ccc(NC(=O)C2(c3ccccc3)CCCC2)cc1	14	-0.1	-0.7%	-8%	25%	3	6%
CSCCC1NC(=O)C(C(C)=NNC(N)=O)=C1O (stereo not given)	-11	.	1.8%	-8%	.	.	5%
CC1Cc2ccccc2N1C(=O)CSc1nnc2sc3ccccc3n12 (stereo not given)	25	1.2	1.1%	4%	-2%	-3	-11%
COc1ccc(C)cc1S(=O)(=O)Nc1cccc(-c2ccc(N3CCCCCC3)nn2)c1	-19	.	-12%	30%	6%	27	?
CC(=O)Nc1ccc(OC(=O)c2cc3cc(Br)ccc3oc2=O)cc1	6	14	1.9%	-4%	7%	4	-8%
COc1ccc(NC(=O)C(NC(=O)Cc2cccs2)c2ccccc2)cc1 (stereo not given)	-3	0.4	5.8%	-3%	18%	13	11%
CC1CCC/C(=N\NC(=O)Nc2ccccc2)C1 (stereo not given)	2	10	1.0%	-11%[15.4 µM]	5%	18	-4%
O=C(COC(=O)c1ccc(S(=O)(=O)N2CCCC2)cc1)Nc1cccnc1Cl	5	-0.1	.	-2%	-9%	9	4%
COc1cc2[nH]c(=S)nc(NCc3cccs3)c2cc1OC	7	-1.0	.	-4%[15.4 µM]	0%	0	-9%
CCOc1ccc(Oc2ccc(C(F)(F)F)cc2N)cc1	12	3.3	-1.9%	8%[15.4 µM]	19%	0	-8%
CCc1ccc(OCC(O)CN2CCCC2)cc1 (stereo not given)	-2	15	1.0%	1%[15.4 µM]	14%	6	10%
CC1=Nn2c(nnc2-c2cccs2)SC1	-4	-2.6	0.8%	?	8%	-1	9%
COc1ccc(-c2cn(-c3ccc(C)cc3)c(=O)n2CC(=O)Nc2ccc(OC)cc2OC)cc1	-9	8.5	-1.4%	-27%	?	-1	-6%
COc1ccc(-c2[nH]ncc2CN(C)Cc2c(C)n[nH]c2C)c(OC)c1	4	-4.0	0.4%	-1%[15.4 µM]	8%	2	12%
CCCCCCN1C[C@H](O)[C@@H](n2cc(COC(=O)c3ccccc3)nn2)C[C@@H]1c1ccc(Cl)cc1	-3	.	-4.7%	-1%	.	.	.
CCc1nnc(NC(=O)COC(=O)c2cc(OC)cc(OC)c2)s1	5	.	-12%	-20%	.	.	1%
Cc1ccc(S(=O)(=O)NCCc2ccncc2)cc1	4	0.7	5.1%	4%	13%	-13	1%
Cc1ccc(C)c(-c2nnc(NC(=O)COc3ccccc3)o2)c1	4	.	-0.8%	9%[15.4 µM]	.	?	-7%
CCOC(=O)N1CCN(c2nc3ccc(C(=O)c4ccccc4)cc3n3cnnc23)CC1	81	4.0	-2.1%	?	-6%	-4	-18%
COc1ccccc1OCCCC(=O)Nc1ccc2c(c1)OCCO2	-5	.	1.8%	-2%[15.4 µM]	6%	-6	6%
O=C(Oc1nsnc1N1CCOCC1)N1CCCCC1	11	.	-0.2%	?	.	.	1%
CC(=O)/C=C(\C)Nc1c(C)n(C)n(-c2ccccc2)c1=O	-11	1.1	.	-1%[15.4 µM]	18%	0	.
COCc1nnc(NC(=O)CCC2CCCCC2)s1	-1	-0.1	0.3%	-1%	9%	-9	-2%
CC1(C(=O)NC2CCCCC2)CCC(=O)N1Cc1cccnc1 (stereo not given)	-11	-0.7	-1.0%	-1%	21%	?	6%
COc1ccc(C(C(=O)NC2CCCCC2)N(CC2CCCO2)C(=O)CNC(=O)c2ccco2)cc1 (stereo not given)	-12	0.2	-1.2%	-3%	5%	-8	6%
Cc1cc(OCc2cccc(Cl)c2)c(C)cc1CN1CCOCC1	83	1.6	0.3%	24%	-3%	1	-1%
Cc1ccc(S(=O)(=O)N2CCCCC2CCNC(=O)C(=O)NCCc2ccco2)cc1 (stereo not given)	3	.	-2.5%	-45%[inhibitor]	.	0	12%
CCN(CC(=O)N1CCCCC1)S(=O)(=O)c1ccccc1	15	-1.9	-0.4%	?	-2%	4	3%
Cc1ccc(C)c(-n2c(-c3csc(C)c3C)n[nH]c2=S)c1	-13	.	-1.7%	-43%[inhibitor]	?	5	2%
CN(C)/C=C/C1=CC(=O)CC(C)(C)C1	-25	?	.	-1%[15.4 µM]	23%	6	-11%
O=c1[nH]c(-c2ccccc2)nc(CN2CCCCC2)c1O	5	.	-6.4%	-2%	.	.	0%
O=C(CCN1C(=O)/C(=C/c2ccccc2)SC1=S)N[C@@H](CO)Cc1ccccc1	-4	.	-0.6%	4%	-6%	-11	?
O=C(CSCc1c(F)cccc1F)Nc1ccccc1	7	0.1	.	-6%	5%	-36	8%
COC(=O)[C@@H](NC(=O)N1CCC(Cc2ccccc2)CC1)C(C)C	-4	-1.1	.	10%	5%	-23	-5%
Cc1ccc(S(=O)(=O)N2CCN(C(=O)CCC(=O)N3CCc4ccccc43)CC2)cc1	-8	0.8	-0.3%	11%[15.4 µM]	0%	-2	-9%
CCCn1c(C)cc(=O)c2cc(NC(=O)c3cnccn3)ccc21	-2	-1.5	-2.4%	0%	14%	-3	0%
CCC(C(=O)OCC(=O)NC(=O)c1ccccc1OC)c1ccccc1 (stereo not given)	26	.	.	0%[15.4 µM]	.	-13	-9%
COc1cc(-c2onc3ccc(Br)cc23)cc(OC)c1OC	-17	?	.	13%[15.4 µM]	50µM*	-4	.
O=C(COC(=O)c1cc2ccccc2o1)c1ccccc1	12	6.4	-7.2%	4%	-1%	17	2%
Cc1ccc2nc(NC(=O)COC(=O)c3ccncc3)sc2c1	-17	-0.6	.	-12%[15.4 µM]	12%	-1	8%
CC1CCC2(CC1)NC(=O)N(CC(=O)NC(=O)Nc1ccc3c(c1)OCCO3)C2=O (stereo not given)	-12	-0.2	.	-31%[15.4 µM]	16%	1	12%
CCCc1c(C(=O)N/N=C(\C)c2ccccn2)nnn1-c1nonc1N	-3	.	-1.0%	-51%	.	.	.
CCOc1ccc(C(C(=O)NC2CCCC2)N(CCCO)C(=O)c2ccc(-c3ccccc3)[nH]2)cc1 (stereo not given)	-3	5.9	-21%	?	-4%	3	-27%
COc1ccc(OC)c(S(=O)(=O)Nc2cc3c(cc2N2CCCC2)n(C)c(=O)c(=O)n3C)c1	7	1.4	-0.9%	?	-5%	-3	-20%
CC1=C(C(=O)OCCCCCl)C(c2cc3c(cc2Br)OCO3)NC(=O)N1 (stereo not given)	14	2.2	.	6%	17%	-16	4%
CCOC(=O)c1c(NC(=O)CSc2nnc(Cc3csc(N)n3)n2C)sc(C)c1C	-1	0.8	1.4%	-5%	2%	-5	-8%
Cc1cccc(N2CCN(C(=O)C3CCCN(S(=O)(=O)c4c(C)noc4C)C3)CC2)c1C (stereo not given)	13	.	2.3%	0%	.	.	-17%
COc1ccc(-c2c(C)oc3c(CN4CCOCC4)c(O)ccc3c2=O)cc1OC	27	-0.1	?	?	8%	-8	4%
O=C(Nc1ccc(NC(=O)c2cccnc2)cc1)c1ccccc1	-12	.	.	-54%[inhibitor]	15%	1	-3%
O=C(Cc1cccc2ccccc12)NNC(=O)Nc1cccc(Cl)c1	17	6.5	-11%	-32%[inhibitor]	-1%	8	-4%
Carrying on.
SMILES	TRPML1 blocker	Menin-MLL FL inh	ClpP mod	gsp agonist	Sfp PPTase inh	TRPV1 PAM	gsp antagonist
COc1ccc(NC(=O)c2c3c(nc4ccccc24)CCC3)cc1	15	-0.2	-3.5%	-9%	20%	3	4%
CC(C)C[C@H](NC(=O)C1CCN(S(=O)(=O)c2ccccc2)CC1)C(=O)NCc1cccnc1	-1	.	.	12%	5%	-2	11%
O=C(CN(Cc1ccccc1)C(=O)CCC(=O)Nc1ccccn1)NCc1ccco1	2	-0.3	4.5%	-1%	6%	-2	3%
CSc1ccccc1OCc1cc(C(=O)NCc2cccc(C)n2)no1	-1	2.9	-1.5%	15%	3%	-12	-11%
COc1ccccc1CNC(=O)c1ccc(CS(=O)(=O)c2ccccc2)o1	-3	1.4	0.0%	-77%[inhibitor]	-1%	-11	2%
Cc1ccccc1N(C(=O)Cn1nnc(-c2ccc(F)cc2)n1)C(C(=O)NC(C)(C)C)c1ccncc1 (stereo not given)	-2	2.8	.	-17%[15.4 µM]	-6%	-21	?
Cc1ccccc1-n1c(-c2ccco2)n[nH]c1=S	-14	1.8	?	36%[15.4 µM]	4%	4	1%
Cc1cc(S(=O)(=O)Nc2ccc3c(c2)COC3=O)ccc1F	-5	-1.2	.	-15%[15.4 µM]	-10%	-11	-14%
CC(=O)Nc1ccc(S(=O)(=O)Nc2cccc(-c3cn4cccnc4n3)c2)cc1	10	-2.3	.	11%[15.4 µM]	5%	3	17%
O=C(NCCc1c[nH]c2ccccc12)c1ccc([N+](=O)[O-])o1	-2	.	0.5%	-209%[inhibitor]	.	.	.
O=C(Cn1ncc(N2CCOCC2)c(Br)c1=O)c1ccc(Cl)cc1	-5	-5.8	0.6%	-77%[inhibitor]	-17%	-9	-6%
Cc1ccc(CN2C(=O)CCC2C(=O)NCc2ccco2)cc1 (stereo not given)	-11	0.5	0.5%	5%	15%	-5	-9%
O=C(O)c1ccc2c(c1)C(=O)N(c1cc([N+](=O)[O-])ccn1)C2=O	?	-1.7	-0.1%	20%	12%	22	-17%
Cn1ccnc1SCCNC(=O)C1CCC(=O)N(Cc2ccc(Cl)cc2)C1 (stereo not given)	4	-1.3	-3.0%	9%	8%	-14	1%

The order is random; overall some 4.9% were active at least once.
